# Cruzain Triton = blocks cruzain activity in presence of Triton detergent | P25779 | purified cruzain, Z-FR-AMC fluorescence, 0.01% Triton | Potency, µM, for inactives: max response, negative = inhibition, hits mostly inhibitors | 0.43% of 200,000 active;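 also: plate controls were neutral wells for no effect and buffer without enzyme for full effect; nearly all actives have a fitted effect of over 40% in size; top concentration of the series not given in the record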
# Target sequence (P25779 123-467 limits assumed): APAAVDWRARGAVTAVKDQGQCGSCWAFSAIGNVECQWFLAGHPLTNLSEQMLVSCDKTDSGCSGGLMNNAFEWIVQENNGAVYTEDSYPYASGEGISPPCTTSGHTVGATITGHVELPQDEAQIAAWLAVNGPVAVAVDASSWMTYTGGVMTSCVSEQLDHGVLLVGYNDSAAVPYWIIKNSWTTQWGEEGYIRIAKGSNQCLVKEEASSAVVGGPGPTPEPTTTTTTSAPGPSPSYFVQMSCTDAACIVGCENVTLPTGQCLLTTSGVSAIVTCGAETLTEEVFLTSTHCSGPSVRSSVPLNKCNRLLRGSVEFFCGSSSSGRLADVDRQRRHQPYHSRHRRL
#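 Z-FR-AMC hydrolysis (2 uM substrate) by cruzain (1.5 nM) monitored kinetically at ex 360/em 450 nm after 15 min room-temperature compound exposure; 0.01% Triton X-100, pH 5.5, 5 mM DTT.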
# Cruzain inh noDet = inhibitors of Trypanosoma cruzi cruzain without detergent; purified cruzain, Z-FR-AMC fluorescence, no detergent; 2.3% of 200,000 active; Potency, µM, for inactives: max response, negative = inhibition, most hits filed as inhibitors; AID 1476;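 also: plate controls were enzyme without inhibitor for no effect and buffer without enzyme for full effect; nearly all actives have a fitted effect of over 40% in size; top concentration of the series not given in the record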
#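 Purified cruzain at 1.5 nM, pre-incubated 15 min with compound at room temperature in 100 mM sodium acetate pH 5.5, 5 mM DTT, 0.00005% Triton X-100. Reaction started with 2 uM Z-FR-AMC; AMC fluorescence increase over 60 s gives rate.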
# RE007 growth inh = less growth of the S. pombe RE007 Vpr strain | S. pombe RE007 Vpr strain, BacTiter-Glo ATP luminescence, 24 h; control for the full effect not named in the record | 0.21% of 360,000 active | Potency, µM (top dose mostly 92.2 µM), without a hit: at the top dose activity change, negative = less growth; active = well fitted falling curve with a large enough effect; inconclusive = small, poorly fitted or top-dose-only effect; inactive = no such curve, though single readings can be large or run the other way;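 also: % is scaled to controls: 0 for no effect and ±100 for the full control effect; nearly all actives have a fitted effect of over 50% in size; the assay follows cell death caused by Vpr and the record does not say whether a fall means rescue or toxicity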
#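 Fission yeast RE007 carrying one integrated HIV-1 vpr copy, seeded at OD 0.01 in PMG+AL medium with 23 nL pinned compound. Grown 24 h at 30 degrees; viability read by BacTiter-Glo luminescence after 5 min.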
# 2A StopGo = FMDV 2A StopGo reporter, luciferase signal | human cells with a luciferase reporter of 2A StopGo recoding; control for the full effect not named in the record | Potency, µM (top dose mostly 57.9 µM), for the others: at the highest dose signal change, negative = less light | 1.2% of 410,000 active; active = well fitted falling curve with a large enough effect; inconclusive = small, poorly fitted or top-dose-only effect; inactive = no such curve, though single readings can be large or run the other way; tested in HEK293T cells; also: % is scaled to controls: 0 for no effect and ±100 for the full control effect; nearly all actives have a fitted effect of over 45% in size; luciferase light after 4 h
# Marburg entry inh = Marburg virus entry inhibition. AID 540276. Potency, µM (series often up to 37.8 µM), without a hit: at the top dose activity change, negative = inhibition, most hits filed as inhibitors. 1.8% of 300,000 active. Marburg virus pseudotyped entry inhibition, cell reporter; control for the full effect not named in the record; about a third of the inactives were read at about 46 µM; active = well fitted inhibition curve with a large enough effect; inconclusive = small, poorly fitted or top-dose-only effect, or effect the other way; inactive = flat fitted curve, though single readings scatter; tested in HEK293 cells; about a fifth of its hits are not listed in these tables; also: % is scaled to controls: 0 for no effect and ±100 for the full control effect; luciferase read-out
# NS1 function inh = influenza NS1 inhibition | Potency, µM (series often up to 46.1 µM), without a hit: top-dose activity, positive = more growth | 0.4% of 270,000 active | S. cerevisiae slowed by influenza A NS1, growth recovery by OD600; active means well fitted rising curve with a large enough effect; inconclusive means small, poorly fitted or top-dose-only effect; inactive means no such curve, though single readings can be large or run the other way; also: nearly all actives have a fitted effect of over 50% in size
#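 Compounds were scored for reversing the slow growth caused by influenza A NS1 in S. cerevisiae, measured by optical density at 600 nm. Assay medium contained 2% galactose at pH 6.0; NS1-free yeast of the same strain were the positive control.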
# SARS PLpro yeast = inhibitors of SARS-CoV papain-like protease in yeast | S. cerevisiae expressing SARS-CoV PLpro, growth rescue; control for the full effect not named in the record | Potency, µM (highest dose often 32.9 µM), inactives show at the top dose activity, positive = growth rescue | 0.19% of 330,000 active; active means well fitted rising curve with a large enough effect; inconclusive means small, poorly fitted or top-dose-only effect; inactive means no such curve, though single readings can be large or run the other way; also: 0% is about no effect; nearly all actives have a fitted effect of over 55% in size; growth read by luminescence after 48 h
# LASV entry inh = blocks Lassa virus binding to or entry into cells; 1.2% of 300,000 active; AID 540256; Potency, µM (doses to about 37.9 µM), inactives show top-dose activity change, negative = inhibition, most hits filed as inhibitors; Lassa virus pseudotype entry inhibition, cell reporter; control for the full effect not named in the record; active means well fitted inhibition curve with a large enough effect; inconclusive means small, poorly fitted or top-dose-only effect, or effect the other way; inactive means flat fitted curve, though single readings scatter; tested in HEK293 cells; also: % is scaled to controls: 0 for no effect and ±100 for the full control effect; nearly all actives have a fitted effect of over 50% in size; luciferase read-out
# * hit, by the source's call; ? = inconclusive; · = no result given; & = joins results of further samples; [ ] = remark or other dose. Unless noted, calls follow the shape of the dose curve; as a rule, active = well fitted curve in the direction sought with a large enough effect; inconclusive = small, poorly fitted or top-dose-only effect, or another doubt; inactive = no such curve, though single readings can be large; an effect the other way counts as inactive or inconclusive. Potency is read from the fitted curve at half-maximal effect.
No.	Molecule	Cruzain Triton	Cruzain inh noDet	RE007 growth inh	2A StopGo	Marburg entry inh	NS1 function inh	SARS PLpro yeast	LASV entry inh
1	O=C(O)c1cccc(CSc2nnc(COc3ccccc3)o2)c1	2.3%	-11%	1%	0%	-40%	7%	-2%	-11%
2	O=C1NC(=S)NC1=Cc1ccco1	·	·	13%	-7%	4%[46.1 µM]	·	·	?
3	CSc1ccc(-c2cccc([N+](=O)[O-])c2)nn1	·	·	1%	52%[activator]	-17%[46.1 µM]	·	-4%	·
4	O=C(CSc1nc2[nH]ncc2c(=O)[nH]1)Nc1cccc(Cl)c1	·	·	6%	-3%	14%[46.1 µM]	·	-1%	-14%
5	Cn1nnnc1SCCNCc1ccc(OCc2ccc(Cl)cc2)cc1	-2.5%	-1%	·	-16%	-8%[46.1 µM]	·	·	7%[46.1 µM]
6	COc1ccccc1NCN1C(=O)CCC1=O	·	·	2%	-3%	·	-6%	-10%	·
7	COc1ccc(-c2noc(CN(C)S(=O)(=O)c3ccccc3)n2)cc1OC	·	·	-2%	-21%	-9%[46.1 µM]	1%	·	-16%
8	CC(C)(C)NCC(O)COc1ccccc1C(=O)CCc1ccccc1 (stereo not drawn)	-2.0%	-6%	9%	·	10µM*	-2%	4%	-1%
9	Cc1ccc(/C=C(\C#N)c2nc3ccccc3[nH]2)s1	1.4%	-24%	1%	·	2%	-57%	-10%	-6%
10	CCOc1ccccc1NC(=O)Cn1c(=O)n(CCCC(=O)NCc2ccc(C)cc2)c(=O)c2ccccc21	-1.0%	-9%	·	-11%	10%[46.1 µM]	·	·	10%[46.1 µM]
11	CCn1cc(C(=O)N2CCN(c3ccc(F)cc3)CC2)c(=O)c2cc(S(=O)(=O)N3CCOCC3)ccc21	-8.1%	?	·	0%	10%[46.1 µM]	·	·	5%[46.1 µM]
12	CC1(C)Cc2ccccc2C(Nn2cnnc2)=N1	2.8%	-4%	0%	·	14%	1%	-4%	3%
13	O=C(COC(=O)c1ccc(Br)o1)Nc1cccc(S(=O)(=O)N2CCOCC2)c1	·	·	5%	26%	-12%[46.1 µM]	·	-3%	-12%[46.1 µM]
14	Cc1cc(OCC(=O)NCC(c2cccs2)N2CCOCC2)ccc1C(C)C (stereo not drawn)	·	·	5%	-30%	?	·	-7%	?
15	CC(=O)c1sc(NC(=O)c2ccc(C(C)(C)C)cc2)nc1C	·	·	-4%	?	?	-3%	2%	?
16	Cc1cc(C(=O)N2CCC(Cc3ccccc3)CC2)no1	·	·	2%	4%	·	-2%	1%	·
17	N#C/C(C(N)=O)=C1/CCc2ccccc2N1	-4.1%	-4%	13%	8%	?	-53%	-11%	25%
18	COc1ccc(NC(=O)Cc2c(F)cccc2Cl)cc1	·	·	-18%	52%[activator]	·	3%	0%	·
19	O=C(c1ccc2c3n(nc2c1)-c1ccc(Cl)cc1CO3)N1CCOCC1	·	·	-3%	104%[activator]	·	-6%	-7%	·
20	O=C(NC(=S)Nc1ccccc1)c1csnn1	-1.2%	-8%	-4%	·	10%	6%	-8%	-1%
21	COc1cccc(/C=N/NC(=O)c2ccccc2NC(=O)c2ccco2)c1OC	·	·	-3%	0%	·	-7%	0%	·
22	COc1ccc(-c2nc3ccc(C)cn3c2Nc2ccc3c(c2)OCO3)cc1	-2.6%	-2%	·	17%	?	·	·	20%[46.1 µM]
23	OC1COCOC1C(O)C1OCOCC1O (stereo not drawn)	·	·	-8%	18%	-13%[46.1 µM]	·	·	6%[46.1 µM]
24	CC1(C)CC(=O)C(C=NCCN2CCN(C3CC(=O)N(c4ccc(Br)cc4)C3=O)CC2)=C(O)C1 (stereo not drawn)	·	·	?	-23%	1%[46.1 µM]	-3%	-4%	-4%
25	CCCCN(C(=O)c1ccc(-n2nc(C)cc2C)cc1)c1c(N)n(CCC)c(=O)[nH]c1=O	·	·	7%	-28%	0%	·	3%	19%
26	O=C(Nc1ccccc1)/C(=C\c1ccccc1)NC(=O)c1ccco1	·	·	2%	12%	0%[46.1 µM]	6%	0%	9%
27	N=C1/C(=C\c2ccc(OC(=O)c3ccc(F)cc3)cc2)C(=O)N=C2SC(N3CCOCC3)=NN12	·	·	-1%	19%	·	-39%	-6%	·
28	NS(=O)(=O)c1ccc(CCNc2ccnc3cc(Cl)ccc23)cc1	·	·	6%	-23%	?	30%	-1%	·
29	CC1=CCn2c(=O)c3ccccc3c(=O)n2C1	-3.9%	0%	9%	-3%	44%	-7%	-3%	-6%[46.1 µM]
30	CCN(CC)CCNC(=O)C1c2cc(OC)c(OC)cc2C(=O)N(C)C1c1cccs1 (stereo not drawn)	·	·	-25%	30%[activator]	-5%[46.1 µM]	·	-3%	10%[46.1 µM]
31	CS(=O)(=O)N(Cc1ccc(F)cc1)Cc1nc2ccccc2c(=O)[nH]1	2.0%	-8%	10%	7%	24%	-11%	-3%	19%
32	Cc1noc(C(=O)Nc2ccc(C#N)cc2)c1Cl	·	·	-6%	0%	22%[46.1 µM]	6%	0%	1%[46.1 µM]
33	O=C(O)CC1(CC(=O)Nc2ccc3ccccc3c2)CCCCC1	-1.1%	-8%	4%	7%	-8%	6%	5%	24%
34	COCCn1c(SC2CCCCC2=O)nnc1-c1ccncc1 (stereo not drawn)	·	·	-2%	0%	-4%	12%	3%	5%
35	Cc1cccnc1NC(=S)Nc1ccc(Cl)c(Cl)c1	·	·	-13%	71%[activator]	·	-8%	-1%	·
36	O=C(NNC(=O)c1ccc(Br)o1)c1ccc(NC(=O)c2ccccc2)cc1	·	·	1%	10%	8%[46.1 µM]	0%	-1%	4%
37	Cc1cc(NC(=O)CSc2nnc(CNC(=O)c3ccccc3)o2)no1	·	·	-8%	3%	0%	2%	4%	11%
38	CCOC(=O)C1CCCN(S(=O)(=O)c2cc3c4c(c2)CCC(=O)N4CCC3)C1 (stereo not drawn)	·	·	-23%	?	?	·	2%	-28%[46.1 µM]
39	CCCCc1ccc(NC(=S)Nc2ccc(Nc3ccc(OC)cc3)cc2)cc1	-1.9%	0%	4%	-29%	?	?	?	?
40	CCn1cc(NC(=O)Nc2ccccc2C(=O)OC)c(C(N)=O)n1	0.8%	-3%	2%	2%	-24%	4%	-2%	2%
41	CCn1c(C)c(C(C)=O)c(N2CCN(c3ccc(OC)cc3)CC2)nc1=S	·	·	-14%	-19%	-16%	·	-1%	-5%
42	O=C(NCc1ccccc1)C1CCCN1S(=O)(=O)c1ccc(Cl)cc1 (stereo not drawn)	·	·	8%	8%	·	1%	3%	·
43	O=C(COc1ccccc1)NC(Cc1c[nH]c2ccccc12)C(=O)O (stereo not drawn)	-4.1%	-1%	17%	5%	-1%	-2%	-1%	-2%
44	Cc1[nH]nc2c1C(c1ccccc1F)CC(=O)N2 (stereo not drawn)	5.3%	-6%	-1%	5%	17%	?	12%	7%
45	COc1ccc(C2CC(c3cccs3)=NN2C(=O)CCC(=O)O)cc1OC (stereo not drawn)	·	·	0%	13%	0%[46.1 µM]	19%	-9%	-2%[46.1 µM]
46	O=C(NC1=NCCS1)c1ccc(Cl)c(Cl)c1	·	·	3%	-8%	?	2%	-3%	?
47	CC1Cc2ccccc2N1S(=O)(=O)c1cccc(C(=O)NCCCn2ccnc2)c1 (stereo not drawn)	·	·	-4%	?	?	·	2%	-6%[46.1 µM]
48	Cc1cccc(NC(=S)N2CCN(C(=O)c3ccco3)CC2)c1	·	·	6%	1%	-14%[46.1 µM]	11%	1%	-28%[46.1 µM]
49	Cc1ccsc1C(=O)OCC(=O)Nc1nnc(-c2ccccc2)o1	·	·	5%	-5%	6%	·	-1%	0%
50	CC(Sc1nnc(NC2CC2)s1)C(=O)Nc1ccc(N2CCOCC2)cc1 (stereo not drawn)	·	·	1%	12%	21%	·	-1%	-28%
51	O=C(NCCCN1CCOCC1)c1ccc2c(=O)n(CCc3ccccc3)c(=O)[nH]c2c1	-2.4%	-1%	-11%	-2%	-17%	2%	18%	-10%
52	COc1ccc(-n2c(SCC(=O)NCC3CCCO3)nc3n[nH]c(C)c3c2=N)cc1 (stereo not drawn)	3.1%	-3%	-1%	0%	0%[46.1 µM]	?	4%	-30%
53	COCCC(=O)NC1CCCc2c1cnn2-c1cccc(C)c1C (stereo not drawn)	·	·	3%	-24%	1%	0%	-7%	-4%
54	O=C1Nc2ccccc2C1=Nc1ccc(F)cc1	·	·	-2%	-5%	12%[46.1 µM]	-6%	1%	-8%
55	COc1ccc(OC(C)C(=O)NC2CC(C)(C)NC(C)(C)C2)cc1 (stereo not drawn)	-1.7%	-6%	11%	2%	1%	2%	-2%	4%
56	COC(=O)c1ccc(-c2ccco2)n1Cc1cc(C)ccc1C	-10%	0%	16%	2%	20%	10%	-4%	-11%
57	Cc1cccc(CNC(=O)c2ccc3c(c2)N(C)CCS3)c1	-4.5%	6%	11%	26%&16%	?	-3%	-12%	·
58	Cc1cnc(C(=O)Nc2ccc3c(c2)CCC3)cn1	2.3%	-9%	8%	-27%	?	-18%	-1%	?
59	Cc1ccc(N(CC(=O)Nc2cccc(Cl)c2C)S(C)(=O)=O)cc1	·	·	5%	0%	·	14%	0%	·
60	CC(C)C(=O)NC(Nc1cc(C(F)(F)F)ccc1Cl)C(Cl)(Cl)Cl (stereo not drawn)	-10%	7%	5%	?	-15%	1%	17%	?

# The list continues.
No.	Molecule	Cruzain Triton	Cruzain inh noDet	RE007 growth inh	2A StopGo	Marburg entry inh	NS1 function inh	SARS PLpro yeast	LASV entry inh
61	CCOC(=O)c1c(S(=O)(=O)N2CCN(c3ccc(C(C)=O)cc3)CC2)c(C)n(C)c1C	·	·	-7%	26%	·	2%	-4%	·
62	CCOC(=O)C1=C(C)NC(SCC(=O)Nc2cc(C)on2)=C(C#N)C1c1cccs1 (stereo not drawn)	-9.5%	-7%	2%	·	1%&-20%	0%	-3%	?
63	Cc1ccc(C(=O)COC(=O)c2nc3nccc(C)n3n2)c(C)c1	·	·	3%	-15%	2%	·	22%	3%
64	O=C(c1cc(-c2ccccc2)nn1-c1ccccc1)N1CCN(S(=O)(=O)c2cccc(F)c2)CC1	·	·	-3%	?	7%	·	-8%	-25%[46.1 µM]
65	CC(C)(C)C(=O)NC(=S)NCCc1ccccc1	4.1%	-10%	-19%	20%	?	-46%	27%	19%

# Screening results: PubChem, National Center for Advancing Translational Sciences (NCATS)
